Ecoli rRNA inh = selective bacterial rRNA inhibition in E. coli. E. coli WT GFP vs humanized-ribosome RFP mutants, fluorescence, 24 h; active compounds read low; DMSO median 0, no signal -100. GFP signal change (wild-type ribosome), % (concentration not given with the values). actives 1.6% (n = 350,000). AID 720706;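 active = significant combined selectivity score with lowered wild-type GFP, culture density cut under 30%, mutant RFP and density less affected; inactive = any of these conditions unmet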; also: one replicate is shown; some compounds called inactive have numbers as strong as hits
UCH37 DUB inh = inhibitors of human deubiquitinating enzyme UCH37; purified proteasome/UCH37, Ub-AMC cleavage fluorescence; inhibition, % (test concentration not listed); actives 0.33% (n = 330,000);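 active = mean of two replicates above 20%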;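 also: 0% = compound-free wells with enzyme and 100% = wells lacking proteasome; stock transfer was 100 nL into about 20 µL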
Target sequence (Q9Y5K5 whole entry, looked up): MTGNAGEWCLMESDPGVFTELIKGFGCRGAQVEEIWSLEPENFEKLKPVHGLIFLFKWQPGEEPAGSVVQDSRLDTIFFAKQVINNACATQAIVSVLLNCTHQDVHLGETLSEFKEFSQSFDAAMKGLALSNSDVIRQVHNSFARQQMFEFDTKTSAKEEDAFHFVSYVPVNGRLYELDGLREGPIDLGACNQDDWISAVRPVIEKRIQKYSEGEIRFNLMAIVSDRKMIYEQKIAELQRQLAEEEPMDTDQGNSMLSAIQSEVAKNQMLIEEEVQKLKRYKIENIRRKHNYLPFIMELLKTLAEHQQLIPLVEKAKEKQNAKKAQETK
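assay system = human UCH37 enzyme supplied as purified proteasome complex | amount = proteasome at 0.15 nM in the dispensed enzyme solution | schedule = 30 min compound-proteasome preincubation then 25 min substrate reaction, room temperature | measured by = fluorescence, ex 355 nm, em 460 nm | benchmarks = no-proteasome wells (full inhibition) and compound-free wells (no inhibition)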
ALR inh = human ALR oxidase inhibition via reduced H2O2. purified ALR, DTT oxidation, H2O2 HRP-luminol luminescence. AID 485317. inhibition, % (concentration not given with the values). actives 3.8% (n = 290,000). P55789;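 active = mean and each replicate at 75% or more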;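 also: stock transfer was 7.5 nL into about 7.5 µL; 0% = neutral wells and 100% = wells with inactivated enzyme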
Target sequence (P55789 whole entry, looked up): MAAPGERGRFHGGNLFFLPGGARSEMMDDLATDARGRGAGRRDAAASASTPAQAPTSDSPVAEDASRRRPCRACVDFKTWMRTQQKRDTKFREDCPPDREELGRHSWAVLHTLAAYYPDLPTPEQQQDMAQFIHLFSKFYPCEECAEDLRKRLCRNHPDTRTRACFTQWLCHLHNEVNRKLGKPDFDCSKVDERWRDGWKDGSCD
Beta2AR agonist = activates human beta-2 adrenergic receptor causing internalization; Am2.2-beta2AR cells, FAP receptor internalization, flow cytometry; reference of the scale not given here; response, % (no concentration beside the values); AID 504454; actives 0.43% (n = 340,000);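 active = response above a set limit, near 3 SD of response in nonfluorescent compounds, cut at about 42% in these data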;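 also: stock transfer was 100 nL into about 11 µL; a reference agonist was the positive control; negative values mostly stem from fluorescent compounds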
FGF22 binding = binders of recombinant human FGF22 by thermal shift | Q9HCT0 | calls only at 9.99 µM | AID 651658 | SYPRO orange fluorescence; percent of sucrose octasulfate shift, DMSO zero | actives 1.5% (n = 340,000);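 active = melting point raised past a set limit in the mean and every replicate; three in four hits are not shown here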
Target sequence (Q9HCT0 whole entry, looked up): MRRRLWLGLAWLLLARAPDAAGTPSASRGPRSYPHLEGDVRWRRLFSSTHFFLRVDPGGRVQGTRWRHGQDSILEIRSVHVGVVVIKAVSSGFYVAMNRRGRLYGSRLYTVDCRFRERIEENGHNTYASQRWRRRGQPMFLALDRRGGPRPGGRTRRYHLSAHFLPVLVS
Ecoli growth = blocks Escherichia coli growth. OD600, 23 h; active compounds read low. OD600 absorbance (test concentration not listed). actives 0.21% (n = 330,000). AID 1053175;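 active = OD600 absorbance below the run mean of sample wells minus 3.6 SD, in any replicate, cut at about 0.56 in these data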;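 also: stock transfer was 300 nL into about 60 µL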
HNF4A DNA FP = change in binding of human HNF4 alpha to DNA. P41235. actives 0.3% (n = 360,000). AID 1224865. activity change, % at 10 µM. HNF4a-FITC DNA binding, fluorescence polarization, 1 h; in the data active = activity change above about 30%, passing the limit was not always enough;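 also: controls were the assay level and a saturating level of protein; the project sought stronger binding though the title names inhibitors; some compounds called inactive have numbers as strong as hits; positive values seem to mean higher polarization but the record does not say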
Ecoli rRNA inh OD600 = further read-out of Ecoli rRNA inh, marked with its call; OD600 change, %; measured here: OD600 growth;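 optical density of the mix in the first replicate; 0 = DMSO median and -100 = no signal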
Ecoli rRNA inh RFP = second read-out of Ecoli rRNA inh, no call of its own (marks repeat the call); RFP signal change, %; measured here: RFP humanized mutant strains;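 first replicate; 0 = DMSO median and -100 = no signal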
Starred values were filed as active, the others as inactive; i = inactive; / = no result given; + = active, no number; & = joins results of further samples. Some of the compounds tested. The share of hits here may be higher or lower than overall.

SMILES	Ecoli rRNA inh	Ecoli rRNA inh OD600	Ecoli rRNA inh RFP	UCH37 DUB inh	ALR inh	Beta2AR agonist	FGF22 binding	Ecoli growth	HNF4A DNA FP
CCOc1ccc(NC(=O)Nc2cc(C(C)C)ccc2C)cc1	10	21	0.0	/	/	-2	i	/	-0.7
CC(=O)Nc1ccc(NC(=O)C(C)Sc2n[nH]c(=O)n2Cc2ccccc2)cc1 (stereo not drawn)	1	13	1.6	0.6	-4	-5	i	0.66	-1.0
C=CCCN(C(CC(C)C)C(=O)OC)S(=O)(=O)c1cc(Br)ccc1Br (stereo not drawn)	9	-8	-11	1.0	4	4	i	0.66	-3.3
CCOC(=O)C1=C(C)NC(=O)C(C(N)=O)C12CCCCC2 (stereo not drawn)	/	/	/	0.2	0	2	/	0.8	-0.9
CC(=O)O/N=C(/c1nonc1N)N(C)C	14	12	-2.5	/	-3	2	/	/	1.1
CC(C)CN(C(=O)COC(=O)c1ccc2ccccc2n1)C1CCS(=O)(=O)C1 (stereo not drawn)	8	-3	-3.0	-0.3	4	4	i	0.72	1.6
COc1ccc(C(=S)N2CCN(C)CC2)cc1	/	/	/	-1.0	5	5	/	0.71	0.5
O=C(Nc1cccc2ccccc12)N1N=CCC1c1ccccc1 (stereo not drawn)	-28*	-15*	0.3*	2.9	/	1	i	0.64	2.5
Clc1ccc(OCc2nc3ccccc3[nH]2)cc1	-32	-36	-2.1	0.2	-3	2	i	0.6	0.2
CC1CCCCC12NC(=O)N(CC(=O)N1CCc3ccccc3C1)C2=O (stereo not drawn)	5	6	1.0	-0.2	/	-6	i	0.62	-0.1
O=C(COC(=O)CCN1C(=O)/C(=C\C=C\c2ccccc2)SC1=S)Nc1ccc(Br)cc1	1	3	7.9	/	-2	5	i	/	19
O=C(Cc1n[nH]c(=O)[nH]c1=O)N/N=C/c1c(O)ccc2ccccc12	14	14	-2.8	/	9	8	+	/	-0.6
Cc1ccc(S(=O)(=O)N2C[C@H]3C(=O)C[C@@H](c4cccc(Cl)c4)N(S(=O)(=O)c4ccc(C)cc4)[C@H]3C[C@H]2c2ccccc2)cc1	21	10	2.0	/	/	/	i	/	7.0
CCOC(=O)c1c(-c2ccccc2)oc2ccc(OCC(=O)O)cc12	-16	-12	-3.3	-281	11	2	i	0.67	-0.4
O=C(c1ccc(S(=O)(=O)N2CCOCC2)cc1)N1CCc2ccccc2C1	/	/	/	3.6	-15	-9	/	0.67	3.9
COC(=O)[C@@H](NC(=O)N(C1CCCCC1)C1CCCCC1)C(C)C	/	/	/	3.0	-4	-9	/	0.74	1.6
COc1ccc(NC(=O)CCNC(=O)c2ccccc2Cl)cc1S(=O)(=O)N1CCCCC1	12	21	7.2	/	/	/	i	/	2.3
COc1cc(OC)c2c(c1)C(=O)OC2	/	/	/	-0.3	13	-3	/	0.64	-3.5
COc1ccc(NC(=O)CSc2nnc(Cn3c(=O)sc4ccccc43)n2C)cc1OC	5	6	2.7	-0.6	-5	3	i	0.7	2.1
CC(C)c1ccc(C(=O)N2CCN(CCO)CC2)cc1	/	/	/	-3.4	49	-1	/	0.7	2.7
COc1cccc(C(=O)Nc2ccc3nc4n(c(=O)c3c2)CCCCC4)c1	-7	-1	-1.5	/	/	/	i	/	-4.6
N#Cc1ccc(CN2CCN(C(=O)c3ccc(S(=O)(=O)NCc4ccco4)cc3)CC2)cc1	-3	-3	-0.6	/	-5	10	i	/	-1.2
CC(=O)C1=C(O)C(=O)N(c2ccc(Br)cc2)C1c1ccc(Br)cc1 (stereo not drawn)	-14	-27	4.6	3.4	25	-8	i	0.69	-1.4
CCOCc1nnc(NC(=O)CSc2ccccc2)s1	/	/	/	-0.9	-6	2	/	0.77	0.2
COCCn1c(N2CCN(c3ccc(OC)cc3)CC2)nc2c1c(=O)[nH]c(=O)n2C	/	/	/	6.3	39	3	/	0.73	4.5

Gathered by group: the entries above containing four or more nitrogen atoms.
SMILES	Ecoli rRNA inh	Ecoli rRNA inh OD600	Ecoli rRNA inh RFP	UCH37 DUB inh	ALR inh	Beta2AR agonist	FGF22 binding	Ecoli growth	HNF4A DNA FP
CC(=O)Nc1ccc(NC(=O)C(C)Sc2n[nH]c(=O)n2Cc2ccccc2)cc1 (stereo not drawn)	1	13	1.6	0.6	-4	-5	i	0.66	-1.0
CC(=O)O/N=C(/c1nonc1N)N(C)C	14	12	-2.5	/	-3	2	/	/	1.1
O=C(Cc1n[nH]c(=O)[nH]c1=O)N/N=C/c1c(O)ccc2ccccc12	14	14	-2.8	/	9	8	+	/	-0.6
COc1ccc(NC(=O)CSc2nnc(Cn3c(=O)sc4ccccc43)n2C)cc1OC	5	6	2.7	-0.6	-5	3	i	0.7	2.1
N#Cc1ccc(CN2CCN(C(=O)c3ccc(S(=O)(=O)NCc4ccco4)cc3)CC2)cc1	-3	-3	-0.6	/	-5	10	i	/	-1.2
COCCn1c(N2CCN(c3ccc(OC)cc3)CC2)nc2c1c(=O)[nH]c(=O)n2C	/	/	/	6.3	39	3	/	0.73	4.5

Carrying on.
SMILES	Ecoli rRNA inh	Ecoli rRNA inh OD600	Ecoli rRNA inh RFP	UCH37 DUB inh	ALR inh	Beta2AR agonist	FGF22 binding	Ecoli growth	HNF4A DNA FP
CC(=O)/C(=N/Nc1ccccc1)N1CCOCC1	/	/	/	/	99*	5	/	/	0.3
COc1ccc(NC(=O)COC(=O)c2cccc(S(=O)(=O)N3CCCCC3)c2)c(OC)c1	9	15	-2.0	-1.5	-5	-1	i	0.65	-0.1
CCn1cc(C(=O)NC2CCCCC2C)c(=O)c2ccc(C)nc21 (stereo not drawn)	/	/	/	1.0	-2	-5	/	0.059*	0.4
COc1ccccc1NC(=O)c1ccc(Br)c(S(=O)(=O)N2CCCC2)c1	-12	-15	0.6	5.3	9	7	i	0.7	6.8
O=C1N=C(N2C=CC(=C3C=CNC=C3)C=C2)/C(=C/N=NC(=O)c2ccccc2O)S1	1	6	-1.8	/	/	-5	i	/	-36
C=CCn1c(SCc2ccc(C(=O)Nc3nccs3)cc2)nnc1-c1ccc(C)c(Cl)c1	/	/	/	0.9	-5	15	/	0.73	1.1
COc1ccccc1CNC(=O)CN(C)CC(=O)Nc1cccc(F)c1	/	/	/	4.4	-5	2	/	0.68	-0.5
CC(OC(=O)CN1C(=O)C2CCCCC2C1=O)C(=O)Nc1ncc(Cl)cc1Cl (stereo not drawn)	/	/	/	0.5	-5	9	/	0.72	-0.3
CCOCCCNC(=O)C(c1ccc(C)cc1)N(Cc1ccc2c(c1)OCO2)C(=O)CNC(C)=O (stereo not drawn)	/	/	/	0.8	-3	6	/	0.69	2.9
CC1Cc2ccccc2N1CC(=O)c1c(N)n(Cc2ccccc2)c(=O)n(C)c1=O (stereo not drawn)	13	8	14	2.2	-18	-9	i	0.63	4.4
Cc1ccc(C(=O)COC(=O)[C@@H](NC(=O)c2ccco2)C(C)C)s1	-4	2	4.2	0.1	-2	7	i	0.67	1.1
CCOC(=O)N1CCN(C(=O)COC(=O)c2ccc(S(=O)(=O)N(CC)CC)cc2)CC1	11	10	1.3	0.7	-19	0	i	0.61	1.4
COc1ccc(-c2nc(NC(=O)CSc3nnc(C)s3)ns2)cc1	15	9	-2.6	-25	-13	14	i	0.76	7.2
COc1ccc(NC(=O)Nc2cccc3[nH]c([C@@H]4O[C@H](CO)[C@@H](O)[C@H](O)[C@H]4O)nc23)cc1OC1CCCC1	-3	1	2.2	/	/	/	i	/	1.8
O=C(CN1C(=O)c2ccccc2S1(=O)=O)Nc1ccc([N+](=O)[O-])cc1	-3	2	1.3	5.9	5	-4	i	0.65	-1.2
CCn1c(/C=C/c2ccc(O)cc2)nc2ccccc2c1=O	-13	-18	-1.9	-6.0	98*	-14	i	0.62	1.8
COc1ccccc1NC(=O)C(=O)NCc1ccncc1	5	13	0.6	3.7	-2	3	i	0.7	6.4
COCCN(C(=O)C1CCCO1)c1c(N)n(CC(C)C)c(=O)[nH]c1=O (stereo not drawn)	3	5	-2.6	0.1	0	-5	i	0.65	-6.3
Cc1ccccc1NC(=O)c1nn(C)c2c1CS(=O)(=O)c1ccccc1-2	3	13	5.5	3.2	-4	-3	i	0.7	6.5
CCC(C)N1C(=O)S/C(=C/c2ccc3c(c2)n(C)c(=O)n3C)C1=O (stereo not drawn)	-7	-6	-1.5	-30	-3	20	i	0.71	4.8
CCC(C)N(C(=O)COc1ccc(Br)cc1C=O)C1CCS(=O)(=O)C1 (stereo not drawn)	-1	-5	-4.5	1.3	/	-1	i	0.68	3.9
O=C(CSC(=S)N1CCCC1)Nc1ccc(Br)cc1Cl	5	8	-0.5	2.2	-13	-4	i	0.65	2.4
COc1ccc(-c2nc(N)ncc2-c2ccccc2)c(O)c1	-3	-28	0.2	1.0	2	0	i	0.67	1.9
CC(=O)N(CCC(c1ccccc1)c1ccco1)Cc1cccs1 (stereo not drawn)	/	/	/	5.4	11	-12	/	0.72	-0.3
CCOc1ccc2nc(NC(=O)C3CCN(C(=O)c4ccco4)CC3)sc2c1	-17	-27	1.8	/	/	2	i	/	0.9
SMILES	Ecoli rRNA inh	Ecoli rRNA inh OD600	Ecoli rRNA inh RFP	UCH37 DUB inh	ALR inh	Beta2AR agonist	FGF22 binding	Ecoli growth	HNF4A DNA FP
COc1nc2c(s1)C(=O)NCCC2	/	/	/	1.8	-6	4	/	0.79	3.0
COc1ccc2[nH]c(=O)c(CN(CCO)C(=O)c3ccccc3F)cc2c1	16	7	-2.1	-17	-5	-4	/	0.72	-0.6
Cc1nc2ccccc2n1CC(=O)OCC(=O)NCc1ccccc1	7	6	-1.0	4.1	/	6	i	0.74	-6.0
CCc1cc2c(SCC(=O)c3ccc(Cl)s3)ncnc2s1	/	/	/	1.7	-18	-1	/	0.72	-0.6
C=CCNCCCOc1ccc(C)cc1Br	/	/	/	2.1	0	11	/	0.62	-1.6
CC(CCc1ccccc1)NC(=O)[C@@H]1Cc2ccccc2CN1 (stereo partly drawn)	3	6	2.0	0.3	-9	-6	i	0.64	0.1
COc1ccc(/C=C/C(=O)Nc2cccc(F)c2)cc1S(=O)(=O)N1CCOCC1	-27*	-8.3*	5.6*	4.0	0	8	i	0.65	1.9
COc1ccc(CCNC(=O)CN(CCc2ccccc2)S(C)(=O)=O)cc1	-5	-8	-1.7	0.9	-3	-4	i	0.72	3.7
CCOC(=O)N1CCN(Cc2ccc(F)cc2F)CC1	/	/	/	0.1	-5	-2	/	0.7	1.2
Cc1ccc(CSc2nccc(-c3c(C)nc4ccccn34)n2)cc1	10	10	1.7	-214	-2	-4	i	0.68	-1.9
Cn1c(=O)c2c(SCC(=O)N3CCCc4ccccc43)nc(C3CC3)nc2n(C)c1=O	3	5	0.9	0.9	-8	22	i	0.8	3.0
Cn1nccc1-c1coc2c(C(=O)NCC3CCOCC3)cccc12	-6	-8	0.8	/	/	/	i	/	0.7
C[C@@H]1CN([C@@H](C)CO)C(=O)c2cc(Br)cnc2O[C@@H]1CN(C)S(=O)(=O)c1ccc(F)cc1	10&4	1&6	0.2&0.5	/	/	/	i	/	-5.0
CCc1nnc(N/N=C/c2c(F)cccc2Cl)n1N	3	4	2.1	/	-1	1	i	/	-2.5
CNC(=S)N/N=C/c1ccc(-c2ccc(Cl)c([N+](=O)[O-])c2)o1	2	3	-0.6	/	-1	18	i	/	0.3
C/C(=N\Nc1ccccc1[N+](=O)[O-])c1ccccc1O	-11	-5	4.7	/	-15	5	i	/	-5.1
Cc1nn(CCC(=O)NNC(=S)Nc2ccccc2)c(C)c1Br	/	/	/	3.0	/	1	i	0.7	5.0
COc1ccc(/C=C/C(=O)OCC(=O)Nc2ccc(Cl)c(S(=O)(=O)N(C)C)c2)cc1OC	-18	-25	-8.2	-24	-2	4	i	0.69	3.2

Source: PubChem (several laboratories)
